# High-throughput results as filed in PubChem BioAssay.
# E coli growth: E. coli growth inhibition, primary screen, OD600. Escherichia coli growth, 23 h; stronger effect = lower value. hit rate 0.21% among 330,000. AID 1053175, 2014. OD600 absorbance (concentration not given with the values);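 active = OD600 absorbance below the run mean of sample wells minus 3.6 SD, in any replicate, cut at about 0.56 in these data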;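 note: stock transfer was 300 nL into about 60 µL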
# FGF22 binding: binders of human FGF22 protein, primary screen, FGF22 synaptogenesis inhibitor project, biophysical, thermal shift, single point; Fibroblast growth factor 22 (Homo sapiens), Q9HCT0; recombinant FGF22 thermal shift, SYPRO orange fluorescence; percent of sucrose octasulfate shift, DMSO zero; calls only at 9.99 µM; hit rate 1.5% among 340,000; AID 651658, 2012;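 active = melting point raised past a set limit in the mean and every replicate; inconclusive = no clear call; three in four hits are not shown here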
# Target sequence (Q9HCT0 whole entry, looked up): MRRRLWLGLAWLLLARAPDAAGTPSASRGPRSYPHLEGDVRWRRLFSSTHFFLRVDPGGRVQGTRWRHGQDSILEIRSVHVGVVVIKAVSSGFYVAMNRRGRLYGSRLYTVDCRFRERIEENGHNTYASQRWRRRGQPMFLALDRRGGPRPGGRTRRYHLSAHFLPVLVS
# UCH37 inh: inhibitors of human UCH37 deubiquitinase, primary screen, biochemical, Ub-AMC cleavage, fluorescence | purified proteasome/UCH37 | inhibition, % (test concentration not listed) | hit rate 0.33% among 330,000 | AID 588478, 2011;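 active = mean of two replicates above 20%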;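 note: 0% = compound-free wells with enzyme and 100% = wells lacking proteasome; stock transfer was 100 nL into about 20 µL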
# Target sequence (Q9Y5K5 whole entry, looked up): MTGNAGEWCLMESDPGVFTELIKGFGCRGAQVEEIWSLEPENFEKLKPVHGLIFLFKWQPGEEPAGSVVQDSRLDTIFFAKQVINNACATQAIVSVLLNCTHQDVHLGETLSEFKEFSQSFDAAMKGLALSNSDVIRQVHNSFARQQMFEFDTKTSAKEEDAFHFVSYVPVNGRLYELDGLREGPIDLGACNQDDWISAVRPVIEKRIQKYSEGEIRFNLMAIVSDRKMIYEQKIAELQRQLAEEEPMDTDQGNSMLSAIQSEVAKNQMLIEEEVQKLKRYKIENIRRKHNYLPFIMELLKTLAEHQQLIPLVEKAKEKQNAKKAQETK
#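 Material: human UCH37 enzyme supplied as purified proteasome complex / Amount: 0.15 nM proteasome as dispensed / Buffer or medium: pH 7.4 Tris-HCl (50 mM) with ovalbumin, ATP-MgCl2, DTT / Times: preincubation 30 min, reaction 25 min, room temperature / Technique: AMC fluorescence from Ub-AMC cleavage, excitation 355 nm, emission 460 nm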
# HNF4A DNA FP: change in binding of human HNF4A to DNA, primary screen, biochemical, fluorescence polarization, FITC-DNA; 1 h; AID 1224865, 2016; activity change, % at 10 µM; hit rate 0.3% among 360,000; Hepatocyte nuclear factor 4-alpha (Homo sapiens), P41235; in the data active = activity change above about 30%, passing the limit was not always enough;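 note: controls were the assay level and a saturating level of protein; the project sought stronger binding though the title names inhibitors; some compounds called inactive have numbers as strong as hits; positive values seem to mean higher polarization but the record does not say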
# Target sequence (P41235 whole entry, looked up): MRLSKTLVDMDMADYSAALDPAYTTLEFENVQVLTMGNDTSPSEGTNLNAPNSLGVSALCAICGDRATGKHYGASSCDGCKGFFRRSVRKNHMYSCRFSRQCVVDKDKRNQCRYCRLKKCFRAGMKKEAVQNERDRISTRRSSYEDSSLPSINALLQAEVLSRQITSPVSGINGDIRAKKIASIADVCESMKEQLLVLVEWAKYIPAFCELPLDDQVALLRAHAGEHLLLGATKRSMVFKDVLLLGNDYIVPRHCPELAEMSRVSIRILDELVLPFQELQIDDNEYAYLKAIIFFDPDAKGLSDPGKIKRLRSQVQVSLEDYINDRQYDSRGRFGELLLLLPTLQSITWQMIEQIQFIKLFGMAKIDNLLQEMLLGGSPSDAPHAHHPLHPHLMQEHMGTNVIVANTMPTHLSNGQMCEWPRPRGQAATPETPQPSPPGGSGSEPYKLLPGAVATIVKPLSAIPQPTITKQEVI
# Vif A3G: inhibitors of Vif binding to APOBEC3G peptide, primary screen, biochemical, TR-FRET, GST-Vif 1-94, biotin-A3G peptide, dose response retest (AID 1117319). inhibition, %, or IC50 in µM where a hit was titrated. Virion infectivity factor (Human immunodeficiency virus type 1 group M subtype B (isolate …. TR-FRET GST-Vif / biotin-A3G peptide binding; higher % means a stronger effect; test concentration not given here; strong numbers were not always called active. hit rate 0.57% among 260,000;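 active = above the screen mean plus three standard deviations and confirmed in dose response; inconclusive = results disagree or hit not tested in dose response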;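 note: Vif residues 1-94 fused to GST binding biotinylated APOBEC3G peptide 110-148; 0% = full assay without inhibitor and 100% = GST in place of GST-Vif; retest series ran down from 100 µM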
# MLL AF4-AF9 inh: inhibitors of AF4 peptide binding to AF9, primary screen, biochemical, AlphaScreen, biotin-AF4 peptide, FLAG-AF9, single point; inhibition, % at 10 µM; hit rate 0.47% among 350,000;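 active = every replicate reaching a set inhibition limit, whatever the replicate mean, cut at about 25% in these data; inconclusive = mean inhibition reaches that limit but some replicates miss it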;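 note: 0% = plate neutral control median and 100% = total signal loss; the record names both 10 and 1 µM as test concentration; the first replicate is given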
# RanGTP-Imp inh: inhibitors of RanGTP-importin-beta interaction, primary screen, biochemical, FRET, CFP-Ran, YFP-importin-beta, homogeneous | AID 2216, 2009 | cell-free CFP-Ran/YFP-importin-beta FRET ratio | inhibition, % (no concentration beside the values) | Ran GTPase (GTP-bound) - importin-beta complex | hit rate 1.1% among 300,000;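 active = most replicates above 15%; inconclusive = exactly half above 15%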;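 note: 0% = DMSO wells and 100% = Ran loaded with GDP instead of GTP; wells of about 40 µL received 100 nL stock; the first replicate is given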
# * hit, by the source's call; i = inactive; ? = inconclusive; . = no result given; & = joins results of further samples. This is a subset, so the mix of outcomes need not match the whole.
SMILES,E coli growth,FGF22 binding,UCH37 inh,HNF4A DNA FP,Vif A3G,MLL AF4-AF9 inh,RanGTP-Imp inh
O=C(N/N=C(\CC(=O)c1cccs1)C(F)(F)F)c1cccnc1,.,i,.,0.1,.,1.9,-3.2
Cc1cc(C)cc(NC(=O)COc2coc(CN3CCc4ccccc43)cc2=O)c1,0.675,i,-1.3,2.2,9.7%,0.9,-1.8
C=CCOc1cccc(/C=N/NC(=O)CN(c2cc(Cl)ccc2OC)S(=O)(=O)c2ccc(C)c([N+](=O)[O-])c2)c1,.,i,.,0.0,.,2.4,1.4
COc1cc2[nH]c(=O)n(CCC(=O)N3CCN(Cc4ccc5c(c4)OCO5)CC3)c(=O)c2cc1OC,0.705,i,-3.6,0.2,-6.3%,6.2,-0.5
CSCc1ccc(C(=O)N2CCC(CCC(=O)N(C)Cc3ccccc3)CC2)o1,0.709,i,1.0,0.7,.,0.1,3.5
Cn1cccc1C(=O)NC(=O)COC(=O)c1ccc(S(C)(=O)=O)c([N+](=O)[O-])c1,0.653,.,6.4,-2.2,4.4%,.,.
O=C(C[C@@H]1C[C@@H]2c3cc(NS(=O)(=O)c4ccc(F)cc4)ccc3O[C@@H]2[C@@H](CO)O1)NC1CCCCC1,.,i,.,1.2,.,1.6,.
Cc1cc(C(=O)CSc2nc3ccccc3[nH]2)c(C)n1Cc1ccco1,0.706,i,7.0,-1.2,6.4%,-3.0,3.1
O=C(CSc1nnc2c(n1)[nH]c1ccccc12)Nc1nncs1,0.722,i,4.2,-2.4,1.1%,-1.5,-2.4
CC(C)C(CCNCc1ccccn1)c1ccc(Cl)cc1 (stereo unspecified),0.696,i,-0.2,3.7,0.5%,4.7,2.5
COc1ccc(NC(=O)CSc2nc(N3CCCCC3)nc(N3CCCCC3)n2)cc1,0.7,.,-0.4,0.7,0.7%&-8.1%,.,4.4
O=C(Nc1ccc(F)c(Cl)c1)c1nsc(Cl)c1Cl,0.664,i,6.0,-3.0,-2.8%,-3.4,4.4
O=C1NC[C@H](Cc2ccccc2)N(C[C@@H]2CCCN2C[C@H](Cc2ccc(O)cc2)N2C[C@H](Cc3ccccc3)N(CCc3ccccc3)C(=O)C2=O)C1=O,.,i,.,1.8,.,2.9,.
Cc1cccc(Nc2nc(N)c([N+](=O)[O-])c(N3CCN(C)CC3)n2)c1,0.66,.,8.6,-3.7,?,.,1.7
COc1ccc(NS(=O)(=O)c2cccc(C(=O)NCC(c3ccccc3OC)N3CCCC3)c2)cc1 (stereo unspecified),0.631,i,2.3,1.7,-14.7%,12.2,?
COC(=O)c1ccccc1NC(=O)CSc1nccc(C)n1,0.692,.,-0.2,2.4,1.8%,-1.6,-0.1
Cc1nn2c(N3CCN(C(=O)c4ccco4)CC3)cc(C(C)(C)C)nc2c1-c1ccccc1,0.748,.,-50.0,.,?,.,-1.8
CN(C)S(=O)(=O)c1ccc(N2CCOCC2)c(C(=O)NCc2ccc3c(c2)OCO3)c1,0.665,i,2.3,-0.4,-0.9%,2.0,.
CC(C)c1ccc(C2NC(=O)c3ccccc3O2)cc1 (stereo unspecified),0.664,i,5.6,-2.4,.,0.2,-2.0
Cc1onc(-c2c(F)cccc2Cl)c1C(=O)OCn1nnc2ccccc2c1=O,0.725,.,0.3,-0.5,13.4%,.,.
C[C@@H]1CN([C@H](C)CO)C(=O)CCCn2nncc2CO[C@H]1CN(C)C,.,i,.,-13.9,0.0%,-2.8&0.4,.
COc1ccc(CN(CC(=O)NC2CCCCC2)C(=O)CCCC(=O)Nc2ccccn2)cc1,0.731,i,1.4,1.4,5.5%,-3.3,-2.3
CC(C)C[C@H](NC(=O)OC(C)(C)C)c1nnc(SCc2cccc(F)c2)o1,0.61,.,2.6,3.6,-0.6%,.,3.6
COc1cc2c(cc1OC)C1=C(C#N)CC/C(=N\S(=O)(=O)c3ccccc3)N1CC2,.,i,.,-5.5,-3.5%,11.6,4.8
CC(C)NC(=O)N(C)C[C@H]1Oc2c(NC(=O)Nc3ccc4c(c3)OCO4)cccc2C(=O)N([C@H](C)CO)C[C@@H]1C,0.735,i,1.8,2.9,-2.3%,-3.7&-2.4,.
CCCN(CCC)Cc1cc(=O)oc2cc(C)ccc12,.,i,.,-2.0,.,-4.0,.
COc1ccc(F)cc1C(=O)C1CCCN(Cc2cn(C)c3ccccc23)C1 (stereo unspecified),0.652,i,3.0,0.7,.,7.5,0.3
S=C(NCCc1ccccc1)N1CCC2CC1c1cc(-c3ccc4c(c3)OCO4)ccc12 (stereo unspecified),.,i,.,0.7,.,-5.9,.
CCN(CC)C1CCN(C(=O)c2ccc(OC3CCN(Cc4ccccn4)CC3)cc2)C1 (stereo unspecified),0.643,i,0.5,-5.0,.,-1.4,5.3
COCCN(C)Cc1cn(-c2ccc(F)cc2F)nc1-c1ccccc1C,0.664,i,-2.0,-0.7,0.7%,1.8,-3.7
COc1ccc(N2CCN(C(=O)c3ccc(C)cc3)CC2)c([N+](=O)[O-])c1,0.668,.,-0.5,5.3,-2.5%,.,-3.3
COc1cccc(C2SCC(=O)N2c2cccc(C)c2)c1OC (stereo unspecified),0.676,.,-1.6,-0.6,-5.0%,.,1.8
CC1OC(=O)c2cc3ccccc3nc21 (stereo unspecified),.,i,.,-1.8,-3.6%,-0.8,.
CCOc1ccc(C(C)NC(=O)c2ccccc2F)cc1 (stereo unspecified),0.702,i,2.0,2.4,24.5%,2.9,-0.5
CCOc1ccc(NC(=O)C[n+]2ccc(N(C)C)cc2)cc1,0.712,i,2.5,-1.9,-4.3%,-2.8,3.6
COC(=O)C(C)Sc1ccc2nnc(CCNS(=O)(=O)c3ccc(C)cc3)n2n1 (stereo unspecified),0.653,i,0.2,5.3,-8.9%,-1.1,2.3
COC(=O)c1ccc(/C=N/Nc2nc3ccccc3[nH]2)cc1,.,i,.,5.2,1.5%,-0.3,0.5
O=C(O)c1ccc(NS(=O)(=O)c2ccc(C(=O)Nc3ccccc3)cc2)cc1,0.699,i,1.4,2.5,2.8%,-1.0,0.5
CC(=O)NC1C(O)OC(CO)C(O)C1O (stereo unspecified),0.691,i,1.5,-1.4,.,-14.1,2.6
O=c1[nH]c(=S)c2[nH]c(=S)n(-c3ccccc3)c2[nH]1,0.67,i,15.2,-1.5,6.3%,-4.8,.
C=CCCC(=O)Nc1nc(C)c(-c2csc(Nc3cc(OC)ccc3OC)n2)s1,0.737,i,-3.3,1.8,-3.7%,.,0.9
Cc1noc(C)c1C(=O)N1CCC1(C)C(=O)NS(=O)(=O)c1cccc(OC(F)F)c1 (stereo unspecified),.,i,.,-2.4,.,-1.1,.
Cc1cccc(NCc2ccccc2OCc2ccccc2F)c1,0.731,i,0.3,0.0,.,-1.8,3.3
Cc1ccc(NC(=O)NC(=O)N(c2ccccc2)S(C)(=O)=O)cc1,0.686,.,3.2,-3.6,6.9%,.,6.7
CCN1CCN(c2ccc(S(=O)(=O)N3CCCCC3)cc2NC(=O)/C=C/c2ccc(Cl)cc2)CC1,0.697,i,-2.6,-0.5,.,12.8,.

# 3 compounds already listed, arranged by the value under MLL AF4-AF9 inh, high to low.
structure,UCH37 inh,Vif A3G,MLL AF4-AF9 inh,RanGTP-Imp inh
COC(=O)c1ccc(/C=N/Nc2nc3ccccc3[nH]2)cc1,.,1.5%,-0.3,0.5
O=C(O)c1ccc(NS(=O)(=O)c2ccc(C(=O)Nc3ccccc3)cc2)cc1,1.4,2.8%,-1.0,0.5
CCOc1ccc(NC(=O)C[n+]2ccc(N(C)C)cc2)cc1,2.5,-4.3%,-2.8,3.6

# (cont.)
SMILES,E coli growth,FGF22 binding,UCH37 inh,HNF4A DNA FP,Vif A3G,MLL AF4-AF9 inh,RanGTP-Imp inh
CN(Cc1cccc(F)c1)C(=O)C(c1ccccc1)c1ccccc1,0.679,i,4.3,0.1,0.1%,-9.9,-4.5
O=C(C(=O)N1CC=C(c2ccccc2)CC1)c1c[nH]c2ccccc12,0.707,i,2.6,-0.5,.,0.6,-0.2
COc1ccc(NS(=O)(=O)c2cc(NC(=O)c3ccccc3)ccc2N2CCOCC2)cc1,0.7,i,6.4,4.3,.,2.1,.
COc1ccc(NC(=O)c2cccc([N+](=O)[O-])c2)cc1,0.672,i,-1.3,-2.7,.,-1.9,-0.1
CCOc1ccc(NC(=O)NCc2ccccn2)cc1,0.703,i,-2.9,5.6,.,0.2,1.3
Cc1ccc(S(=O)(=O)c2c(N)n(CCCN(C)C)c3nc4ccccc4nc23)cc1,0.648,i,i,1.4,-6.0%,3.2,1.5
COc1ccc(NC(=O)CN(c2ccc(C)cc2)S(=O)(=O)c2c(C)nn(C)c2C)cc1,0.684,i,-0.6,3.8,.,0.1,2.0
Cc1ccc2cc3c(NC(=O)c4ccco4)nn(CC(C)C)c3nc2c1,0.776,.,-23.6,0.9,-7.3%,.,39.4*
CCN(CC)C(=O)c1sc(NC(=O)c2cccs2)c(C#N)c1C,0.659,i,12.5,1.9,13.8%,-1.3,7.4
CC(=O)Nc1ccc(C2=NN(c3ccccc3)C(c3cccs3)C2)cc1 (stereo unspecified),0.708,.,i,0.2,-0.6%,0.9,1.0
COC(=O)c1cc(-c2c(C)oc3cc(OC)ccc3c2=O)c(C)o1,0.669,.,1.0,-2.2,13.9%,-0.7,.
COCCCNC(=O)c1ccc2c(c1)CCN2S(C)(=O)=O,0.754,.,1.7,-1.4,0.1%,.,-0.7
COc1ccc(Cl)cc1NC(=O)C(C)Sc1nnc(C2CC2)n1C1CC1 (stereo unspecified),0.654,i,4.5,3.0,-9.1%,-1.2,.
CN(CC(=O)Nc1ccc(F)c(F)c1F)C(=O)/C=C/c1ccco1,0.632,i,2.1,-1.7,25.9%,0.5,.
O=C(c1ccco1)N1CCN(c2ncnc3c2oc2ccccc23)CC1,0.717,.,1.8,-4.0,-1.3%,.,-0.8
O=C(CN1CCOCC1)Nc1cccc(Cl)c1Cl,0.664,.,1.3,0.3,-4.0%,.,.
CC(=O)c1ccc(N2CCN(c3ccc4cc(S(=O)(=O)N5CCC(C)CC5)ccc4n3)CC2)cc1,0.669,i,-28.2,5.3,.,-2.4,0.0
CC(=O)NS(=O)(=O)c1ccc(NS(=O)(=O)c2ccccc2[N+](=O)[O-])cc1,0.667,i,1.8,-1.8,3.3%,-4.5,-1.2
CCOC(=O)Cc1csc(NC(=O)c2csc3c2CCCC3)n1,0.65,.,-2.1,4.4,?,.,-3.6
COc1cc(CCC(=O)N2CCN(S(=O)(=O)c3ccc(C)cc3)CC2)cc(OC)c1OC,0.668,i,1.8,-0.1,.,1.0,.
Cc1nc(SCC(=O)O)c(C#N)c(C)c1CC(=O)c1ccccc1,0.706,i,0.7,0.4,-6.8%,-6.1,4.1
Cc1cccc(C2(c3cccc(C)c3)OC(=O)c3ccccc32)c1,0.758,.,2.3,-4.5,-3.8%,.,6.3
COC(=O)Cn1c(=NC(=O)c2cc(OC)cc(OC)c2)sc2cc(OC)ccc21,0.738,.,i,-1.8,.,.,-2.1
COc1cc2nc(CN3CCN(S(=O)(=O)c4c(F)cccc4F)CC3)[nH]c(=O)c2cc1OC,0.674,i,2.1,0.3,-8.4%,-0.5,.
